# High-throughput results (PubChem)
# NPYLR7 agonist: agonists of mosquito NPYLR7 receptor, primary screen, cell-based, Aedes aegypti, calcium fluorescence, mosquito biting behavior; hit rate 0.15% among 270,000; AID 1259423, 2018; HEK293T NPYLR7/Galpha15, GCaMP6s calcium fluorescence; Aedes aegypti neuropeptide Y-like receptor 7 (NPYLR7); activation, % at 10 µM; in the data active = activation above about 40%;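 note: 0% = vehicle and 100% = reference agonist at the receptor; some compounds past the cut are filed as inactive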
# NPYLR7 agonist max-min: further read-out of NPYLR7 agonist, marked with its call; activation, %; measured here: Max-Min RFU normalised activation; some inactives read as strong as hits;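 span of the calcium signal over five minutes; 0% = vehicle and 100% = native peptide agonist; compound fluorescence can raise it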
# * marks the source's active call; other numbers are inactive results; & = joins results of further samples. A portion of the library, so the mix of outcomes need not match the whole.
Molecule | NPYLR7 agonist | NPYLR7 agonist max-min
COc1ccc(-c2ccc(=O)n(CCNC(=O)c3ccco3)n2)cc1 | 2 | 2
COc1ccc(C(=O)COC(=O)c2cccc([N+](=O)[O-])c2)cc1OC | -1 | -4
CCN(Cc1cnn(CC)c1)C(=O)c1cccn1C | 1 | -1
COCCCNC(=O)CCc1c(-c2ccccc2)nc2ccc(-c3cc4ccccc4s3)cn12 | -5 | -5
NC(=O)c1cnc(Sc2nnc(C3CC3)s2)c(Cl)c1 | 2&2 | 1&31
CCCCN(CC(=O)N1c2ccccc2-n2cccc2C1c1cccc(C)c1)C(=O)Nc1cccc(OC)c1 (stereo not drawn) | 15 | 25
Cc1ccccc1-c1csc(NC(=O)c2occc2CN2CCOCC2)n1 | 4 | 2
C=CCN1C(=O)CNC12CCN(C(=S)NCCC)CC2 | 7 | 5
Cc1ccccc1CN1CCN2C(C(=O)NCCCN(C)C)=COC2=NC1=O | -2 | -6
CCS(=O)(=O)CCn1c([N+](=O)[O-])cnc1C | -2&-6&-2&1&4 | -3&-10&-8&0&0
CCOc1cccc2sc(N(CCn3nc(C)cc3C)C(=O)c3ccco3)nc12 | -15 | -19
c1nc(CCNc2nc3nonc3nc2N2CCSCC2)cs1 | 12 | 2
CCCc1[nH]n(-c2nc3ccccc3s2)c(=O)c1C(C)=Nc1cc(C(=O)OC)cc(C(=O)OC)c1 | -10 | -17
NC(=O)c1cc2cc(Br)ccc2oc1=Nc1cc(F)ccc1F | 25 | 12
Cc1ccc(NC(=O)CC(=O)NCc2ncc[nH]2)c(C)c1 | -1 | -6
COCc1cc(=O)[nH]c(N=C(NC(=O)c2ccccc2)Nc2ccccc2C)n1 | -8 | -12
COc1ccccc1COc1ccc(F)cc1 | 7 | 5
O=C(CCCc1nnc2c(=O)n(-c3ccc(Cl)cc3)ccn12)N1CCC(N2CCCCC2)CC1 | -6 | -4
NC(=O)[C@@H]1CCCN1C(=O)CN1CC2(CCNCC2)OC1=O | 1 | 15
CCCCCNS(=O)(=O)c1csc(-c2ccc(F)cc2)n1 | 6 | 1
O=C1CC(NCc2ccccn2)CN1C1Cc2ccccc2C1 (stereo not drawn) | 1 | -3
CC1c2ccsc2CCN1C(=O)NCc1ccccc1N1CCOCC1 (stereo not drawn) | 3 | 1
O=C(NCCC(=O)N1CCc2cc(Br)ccc21)c1ccco1 | -1 | -2
Cc1cc(C)n2c(SCc3nc(-c4ccc(C(C)C)cc4)no3)nnc2n1 | 6 | 2
CN1C2CC(OC(=O)[C@H](CO)c3ccccc3)C[C@H]1[C@H]1OC21 (stereo partly drawn) | -13&-4 | 1&-7
C=CCn1c(=O)c(C(=O)Nc2ccc(I)cc2)c(O)c2ccccc21 | 8 | 8
C=CCN(Cc1cccc(C)n1)Cc1cccc(C)n1 | 3 | 2
O=C(NC(c1ccc(Cl)cc1)c1cnccn1)C1CCN(Cc2ccc3c(c2)OCO3)CC1 (stereo not drawn) | 8 | 5
O=C(c1cccc2cc[nH]c12)N1CCOC(C(F)(F)F)C1 (stereo not drawn) | 8 | 5
C=c1ccccc1=C1NN=C(NC(=O)CSc2nnc(NC(=O)CC)s2)S1 | 0 | -1
CC(=O)Nc1ccc(-c2csc(NC(=O)C(C)C)n2)c(F)c1 | -1 | -3
CCCCc1noc(C(C)Oc2ccc(NC(=O)OC)cc2)n1 (stereo not drawn) | 5 | 5
Cc1cccc(-c2nnc(C(C)N3CCCC(C(=O)Nc4ccccc4)C3)o2)c1 (stereo not drawn) | 11 | 8
CNC(=S)Nc1cc(C)ccn1 | 6 | 9
CCCN(Cc1ccc(SC)cc1)C(=O)C(=O)c1cccn1C | -3 | -6
O=C(CCN1Cc2ccccc2OC(c2ccccc2)C1)N1CCN(c2nc3ccccc3s2)CC1 (stereo not drawn) | 1 | -1
COCc1c(Br)c(C)nc(OCC(=O)N/N=C\c2ccc(-c3cc([N+](=O)[O-])ccc3C)o2)c1C#N | -12 | -18
CCN(CC)c1ccc(/C=C2\SC(=S)N(CC(=O)O)C2=O)c(O)c1 | 93* | 72*
O=C(NCCc1ccccn1)c1csc(CSc2nnc(-c3ccncc3)n2-c2ccccc2F)n1 | 0 | 8
CC(Nc1ccc2c(c1)OCCCO2)C(=O)NCCC1=CCCCC1 (stereo not drawn) | 8 | 5
Cc1ccc(C(=O)NC(C(=O)NC2CC2)C2CCN(C(=O)C3CCCC3)CC2)cc1 (stereo not drawn) | 0 | 1
COc1ccc(C2=Nc3nnnn3C(c3cc(OC)ccc3OC)C2)cc1 (stereo not drawn) | 2 | 1
N#Cc1ccc(NC(=O)C2CCCN2C(=O)OCC(F)(F)F)cc1 (stereo not drawn) | -2 | -2
CC(=NNc1ncc(Cl)cc1Cl)c1ccco1 | -5 | -6
COCCCNC(=O)c1cc(NC(=O)c2ccc(Cl)cc2Cl)ccc1N1CCN(c2ccccc2OC)CC1 | -1 | 13
N#Cc1cc2nc3c(nc2cc1C#N)-c1ccccc1C3=O | 3 | 1
CCOC(=O)c1ccc2c(c1)nc(SCc1cc(F)ccc1F)n2Cc1ccc(C(F)(F)F)cc1 | 14 | 12
CCC(C(=O)Nc1ccc(OC)cc1Cl)N1CCCC1=O (stereo not drawn) | 4 | 1
Cc1cc(C)cc(COc2coc(CN3CCN(S(=O)(=O)c4ccc(C#N)cc4Cl)CC3)cc2=O)c1 | 0 | -2
Cc1cccc(C2=N/C(=C\c3ccc(OC(F)(F)F)cc3)C(=O)O2)c1 | -2 | -8
CS(=O)(=O)Cc1ccc(N2CC(c3ccncc3)C2)nc1 | 14 | 4
CCNC(=O)[C@@]1(OCc2ccccc2F)CC(OCC(=O)OC)[C@@H]2OC(C)(C)O[C@@H]2C1 (stereo partly drawn) | 2 | 8
CCC(C)N(Cc1ccccc1)Cc1ccc(C(C)(C)O)o1 (stereo not drawn) | -2 | 5
CN(C)C(=O)N1CCC(C(=O)NC(c2ccccc2)C2CCCCC2)CC1 (stereo not drawn) | 11 | 6
O=C1CN(S(=O)(=O)c2ccc(NC(=O)C(F)(F)F)cc2)c2ccncc2N1 | -6 | -8
Cc1cnc(Cn2cnc(-c3ccccc3)c2-c2ccccc2C(=O)O)cn1 | 2 | -8
O=C(Nc1cccc(F)c1)Nc1ccnn1C1CCN(C(=O)CCOc2ccccc2)CC1 | -1 | -8
CC1(C)[C@H]2CC=C(CCNC(=O)Cn3cc(NC(=O)c4ccc5c(c4)OCO5)cn3)[C@@H]1C2 | 29 | 8
Cc1c(C(=O)O)sc2nc3n(c(=O)c12)CCC(C)CC3 (stereo not drawn) | 14 | 15
CC(Nc1nc(-c2cccs2)nc2cc(Cl)ccc12)c1ccccc1 (stereo not drawn) | 7 | 18

# Next section
Molecule | NPYLR7 agonist | NPYLR7 agonist max-min
CCc1nc2ccc(C(=O)N3CCN(C(=O)c4ccco4)CC3)cn2c1N(C)C(=O)Cc1ccccc1 | -2 | -5
O=C(Nc1ccc(-c2noc(-c3ccc(Cl)cc3)n2)cc1)c1ccco1 | -3 | -6
Cc1nc(C)c(-c2ccc(SCc3cccc(Cl)c3)nn2)s1 | 2 | -10
CCOP(=O)(Cc1ccc(NC(=O)[C@@]23CC[C@@](C)(C(=O)O2)C3(C)C)cc1)OCC | -5 | -10
Cc1ccc(Cl)c(C(=O)N2CCN(c3nccc(-c4cccc(C(F)(F)F)c4)n3)CC2)c1F | 24 | 33
Cc1ccc(N2CCN(C(=O)c3cccc(Cl)c3)C(C)C2=O)cc1Cl (stereo not drawn) | -1 | -2
COC(=O)c1ccc(C=NNC(=O)CCc2c(C)n[nH]c2C)cc1 | 5 | 3
Cc1nsc(NC(=O)N2CCC(C3CCCCC3)C2)n1 (stereo not drawn) | -4 | -9
O=C(CSc1nnc(C2CC2)n1C1CC1)c1cc(Cl)sc1Cl | -1 | 0
Cc1ccc2cc(CCNC(=S)NC3CCCCC3)c(=O)[nH]c2c1 | 0 | 1
CCCCC1CCC(C(=O)Nn2cnc3c(cnn3C(C)(C)C)c2=O)CC1 (stereo not drawn) | 4 | 1
COC(=O)[C@@H]1C[C@@H](NC(=O)CCc2nc3c(C)c(C)ccc3[nH]2)CN1C | 28 | 20
O=C1CCC(N2C(=O)c3ccccc3C2=O)C(=O)N1 (stereo not drawn) | 19&-18&1&2 | 9&-25&-4&-35
COCC(C)n1c(=S)nnc2c3ccccc3[nH]c21 (stereo not drawn) | 2&2 | 0&8
c1ccc(NC2CCCN(C3CCOCC3)C2)cc1 (stereo not drawn) | -1 | -2
CCc1nc2c(OCC(=O)N3CCOCC3)cccn2c1N(C)C(=O)c1ccc(C)cc1 | -17 | -8
CCc1cc(C(=O)N2Cc3cnc(C(C)(C)C)nc3C2)ccn1 | 10 | 7
COc1cc(C=CC(=O)c2ccc(Br)cc2)cc(OC)c1O | 15 | 17
CC(=O)N1CCN(C(=O)c2cc(-c3ccccc3)nc3cc(-c4ccccc4)nn23)CC1 | 6 | 13
Cc1ccsc1CN(Cc1ccc2c(c1)OCO2)C(=O)CN(C1CC1)S(=O)(=O)c1ccccc1 | 0 | 4
CC(C)c1cc(=O)n2[nH]cc(-c3ccccc3)c2n1 | 1 | -1
Cc1nnsc1C(=O)N1CCCC(C(=O)Nc2cccc(-c3ccc(F)cc3)c2)C1 (stereo not drawn) | -2&-4 | -4&-5
CC1(C)OC(=O)C(=C2CCCCCN2)C(=O)O1 | 4 | 14
CCCCc1ccc(C(=O)N2CCN(C(=O)CCCSc3nnc(-c4ccco4)n3-c3ccccc3C)CC2C)cc1 (stereo not drawn) | 4 | 2
CCc1ccc(-c2nc(SCc3nccn3CC)n[nH]2)cc1 | 0 | 8
N=C1SCC(=O)C1c1ccccn1 (stereo not drawn) | 8 | 6
COc1ccc(Nc2cc(C)nc3c(-c4ccccc4)c(C)nn23)cc1 | -1 | -3
Cn1cc(C=C2N=C(c3ccc(F)cc3)OC2=O)cn1 | 2 | -2
COC(=O)C1=C(C)Nc2nc(SCC(C)C)[nH]c(=O)c2C1c1cccs1 (stereo not drawn) | -1 | 2
CC1(C)SCC(C(=O)O)N1C=O (stereo not drawn) | -4 | -13

# One compound at a time, from the list above. Values in the order: NPYLR7 agonist | NPYLR7 agonist max-min
# Record of Cc1nnsc1C(=O)N1CCCC(C(=O)Nc2cccc(-c3ccc(F)cc3)c2)C1 (stereo not drawn) → -2&-4 | -4&-5
# Record of Cc1ccsc1CN(Cc1ccc2c(c1)OCO2)C(=O)CN(C1CC1)S(=O)(=O)c1ccccc1 → 0 | 4
# Record of CCCCc1ccc(C(=O)N2CCN(C(=O)CCCSc3nnc(-c4ccco4)n3-c3ccccc3C)CC2C)cc1 (stereo not drawn) → 4 | 2
# Record of COc1ccc(Nc2cc(C)nc3c(-c4ccccc4)c(C)nn23)cc1 → -1 | -3

# (cont.)
Molecule | NPYLR7 agonist | NPYLR7 agonist max-min
O=C(O)c1cccnc1CN(Cc1ccsc1)C1CC1 | -1 | -2
Cc1ccccc1Oc1cc(C(F)(F)F)nc(SCc2c(F)cccc2F)n1 | -1 | -1
Cc1nc(NC(N)=NS(=O)(=O)c2ccccc2)nc2ccccc12 | -1&-6 | 0&-12
O=C(COc1ccc(Cl)cc1Cl)Nc1nnc(SCC(=O)Nc2ccccc2F)s1 | -3 | 6
Cc1ncc(CN2CCN(CC3CCCCC3)C(CCO)C2)s1 (stereo not drawn) | 21 | 10
CCCn1c(=N)n(N)c2ccccc21 | -2 | 2
CC(C(=O)Nc1cc(C(F)(F)F)cc(C(F)(F)F)c1)S(C)(=O)=O (stereo not drawn) | 1 | 1
CC(C)c1nc(CN(C)C(=O)c2cc3ccccc3s2)no1 | 2 | 1
Cc1cc(F)ccc1NC(=O)Cc1csc(C(C)C)n1 | 1 | 1
COc1ccc(OC)c(-c2cnc(-c3cccc(CNC(=O)C(OC(C)=O)c4ccccc4)c3)[nH]2)c1 (stereo not drawn) | 5 | 6
COc1cccc(Cc2nsc(Oc3ccc(CC(=O)O)cc3)n2)c1 | -6 | -12
CCOc1ccc(-c2ccnc(N3CCN(C(=O)c4cncc(Br)c4)CC3)n2)cc1 | 28 | 20
COc1ccc(Cc2nc3ccc(C(=O)N(C)Cc4nccn4C)cc3o2)cc1 | 8 | 3
COc1ccc(-n2c(SCC(=O)N3CCN(C(=O)CCc4ccccc4)C(C)C3)nnc2-c2ccc(C)cc2)cc1 (stereo not drawn) | 0 | 6
CN1CCN2c3ncccc3Cc3ccccc3C2C1 (stereo not drawn) | -3 | -9

# Compounds listed so far with a tert-butyl group:
Molecule | NPYLR7 agonist | NPYLR7 agonist max-min
CCCCC1CCC(C(=O)Nn2cnc3c(cnn3C(C)(C)C)c2=O)CC1 (stereo not drawn) | 4 | 1
CCc1cc(C(=O)N2Cc3cnc(C(C)(C)C)nc3C2)ccn1 | 10 | 7

# Additional records:
Molecule | NPYLR7 agonist | NPYLR7 agonist max-min
CCCCn1c(CN(CC)Cc2ccc(OCC)c(OC)c2)nc2cc(S(N)(=O)=O)ccc21 | -5 | -5
Cc1cc(Oc2ccc(C(C)C)cc2)nc(SCc2ccc(C(F)(F)F)cc2)n1 | 4 | 8
CC1CN(C(=O)CN2CCN(C(=O)OC(C)(C)C)C(C)C2)CCO1 (stereo not drawn) | -1 | -7
CCN1CCN(C(c2ccncc2)c2c(O)cc(C)n(Cc3ccc(OC)cc3)c2=O)CC1 (stereo not drawn) | 10 | 1
COC(=O)c1ccc(OC)c(Cn2cnc3c(-c4ccc(Cl)cc4)csc3c2=O)c1 | 1 | -2
O=C(O)c1cc(Br)cc(S(=O)(=O)NCc2ccccn2)c1 | 3 | 2
N#CC1=C(N2CCCCC2)c2cc3c(n2C1=O)CCCC3 | -1 | -2
CC(C)(C)c1cc(CNC(=O)c2cccc(Cn3cccn3)c2)[nH]n1 | 8 | 2
Nc1nc(-c2c[nH]c3ccccc23)c(-c2ccccc2)s1 | 5 | 3
CCOc1nc(-c2cccc(C(F)(F)F)c2)n(-c2cccc(NCC(O)COCC(C)C)c2)n1 (stereo not drawn) | -2 | 1
O=C(C1CCOCC1)N1CCC2(CCCN(CCc3ccccc3)C2)C1 (stereo not drawn) | 6 | 3
NC(=O)CCN1CCC(c2ccc(F)c(F)c2)CC1 | 7&13 | 3&2
Cc1cc(CN2CCCC2)cc(Oc2ccc(C(N)=O)cn2)c1 | 0 | 2
